Cruzain inh noDet – inhibitors of Trypanosoma cruzi cruzain without detergent; actives 2.3% (n = 200,000); purified cruzain, Z-FR-AMC fluorescence, no detergent; Potency, µM, for the others: max response, negative = inhibition, most hits filed as inhibitors; P25779;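 further: plate controls were enzyme without inhibitor for no effect and buffer without enzyme for full effect; nearly all actives have a fitted effect of over 40% in size; top concentration of the series not given in the record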
Target sequence (P25779 123-467 limits assumed): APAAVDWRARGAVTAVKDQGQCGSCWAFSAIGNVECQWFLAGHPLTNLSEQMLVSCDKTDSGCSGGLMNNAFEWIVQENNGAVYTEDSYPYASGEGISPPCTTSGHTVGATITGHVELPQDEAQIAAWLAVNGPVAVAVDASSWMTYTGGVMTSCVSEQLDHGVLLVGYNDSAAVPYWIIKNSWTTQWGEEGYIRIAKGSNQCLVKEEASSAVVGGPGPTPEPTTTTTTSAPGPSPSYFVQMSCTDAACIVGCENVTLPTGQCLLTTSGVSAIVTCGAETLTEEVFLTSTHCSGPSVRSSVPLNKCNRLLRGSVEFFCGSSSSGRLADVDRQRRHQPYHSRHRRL
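Detergent-free condition (0.00005% Triton X-100) in acetate buffer pH 5.5 with DTT. 1.5 nM enzyme and compound were pre-mixed 15 min, then 2 uM Z-FR-AMC substrate added; reaction progress from fluorescence change between first and third reads (60 s).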
Lassa entry inh – blocks Lassa virus binding to or entry into cells; Lassa virus pseudotype entry inhibition, cell reporter; control for the full effect not named in the record; Potency, µM (doses to about 37.9 µM), inactives show at the highest dose activity change, negative = inhibition, usual class: inhibitors; actives 1.2% (n = 300,000); active means well fitted inhibition curve with a large enough effect; inconclusive means small, poorly fitted or top-dose-only effect, or effect the other way; inactive means flat fitted curve, though single readings scatter; tested in HEK293 cells; further: on the % scale 0 is the no-effect control and ±100 the full control effect; nearly all actives have a fitted effect of over 50% in size; luciferase read-out
MARV entry inh – blocks Marburg virus binding to or entry into cells; Marburg virus pseudotyped entry inhibition, cell reporter; control for the full effect not named in the record; about a third of the inactives were read at about 46 µM; Potency, µM (titrated, usually from 37.8 µM), for inactives: at the top dose activity change, negative = inhibition, usual class: inhibitors; actives 1.8% (n = 300,000); active = well fitted inhibition curve with a large enough effect; inconclusive = small, poorly fitted or top-dose-only effect, or effect the other way; inactive = flat fitted curve, though single readings scatter; tested in HEK293 cells; about a fifth of its hits are not listed in these tables; further: on the % scale 0 is the no-effect control and ±100 the full control effect; luciferase read-out
SARS PLP yeast – blocks SARS-CoV papain-like protease in a yeast assay | S. cerevisiae expressing SARS-CoV PLpro, growth rescue; control for the full effect not named in the record | Potency, µM (doses to about 32.9 µM), without a hit: at the top dose activity, positive = growth rescue | actives 0.19% (n = 330,000) | AID 485353; active means well fitted rising curve with a large enough effect; inconclusive means small, poorly fitted or top-dose-only effect; inactive means no such curve, though single readings can be large or run the other way; further: 0% is about no effect; nearly all actives have a fitted effect of over 55% in size; growth read by luminescence after 48 h
Cruzain inh Det – blocks cruzain activity in presence of Triton detergent | P25779 | purified cruzain, Z-FR-AMC fluorescence, 0.01% Triton | Potency, µM, for the others: max response, negative = inhibition, actives largely listed as inhibitors | actives 0.43% (n = 200,000);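 further: plate controls were neutral wells for no effect and buffer without enzyme for full effect; nearly all actives have a fitted effect of over 40% in size; top concentration of the series not given in the record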
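Cruzain (1.5 nM) preincubated 15 min at RT with compound in 100 mM sodium acetate pH 5.5, 5 mM DTT, 0.01% Triton X-100. Reaction started with 2 uM Z-FR-AMC; AMC fluorescence (ex 360/em 450 nm) change over 60 s gave rate.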
NS1 inh – inhibitors of influenza NS1 protein function; actives 0.4% (n = 270,000); Potency, µM (doses to about 46.1 µM), inactives show at the top dose activity, positive = more growth; AID 2326; S. cerevisiae slowed by influenza A NS1, growth recovery by OD600; active means well fitted rising curve with a large enough effect; inconclusive means small, poorly fitted or top-dose-only effect; inactive means no such curve, though single readings can be large or run the other way; further: nearly all actives have a fitted effect of over 50% in size
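Recovery from NS1-induced slow growth read by OD600 in budding yeast switched to galactose assay medium (pH 6.0, -URA) at 1:100 dilution. Compound 23 nl per well; the matching strain lacking NS1 serves as control.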
RE007 growth inh – less growth of the S. pombe RE007 Vpr strain; AID 651644; actives 0.21% (n = 360,000); S. pombe RE007 Vpr strain, BacTiter-Glo ATP luminescence, 24 h; control for the full effect not named in the record; Potency, µM (series often up to 92.2 µM), inactives show at the highest dose activity change, negative = less growth; active = well fitted falling curve with a large enough effect; inconclusive = small, poorly fitted or top-dose-only effect; inactive = no such curve, though single readings can be large or run the other way;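 further: on the % scale 0 is the no-effect control and ±100 the full control effect; nearly all actives have a fitted effect of over 50% in size; the assay follows cell death caused by Vpr and the record does not say whether a fall means rescue or toxicity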
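Fission yeast RE007 carrying one integrated HIV-1 vpr copy, seeded at OD 0.01 in PMG+AL medium with 23 nL pinned compound. Grown 24 h at 30 degrees; viability read by BacTiter-Glo luminescence after 5 min.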
StopGo reporter – FMDV 2A StopGo reporter, luciferase signal. human cells with a luciferase reporter of 2A StopGo recoding; control for the full effect not named in the record. Potency, µM (series often up to 57.9 µM), for the others: at the top dose signal change, negative = less light. actives 1.2% (n = 410,000). AID 1159524; active = well fitted falling curve with a large enough effect; inconclusive = small, poorly fitted or top-dose-only effect; inactive = no such curve, though single readings can be large or run the other way; tested in HEK293T cells; further: on the % scale 0 is the no-effect control and ±100 the full control effect; nearly all actives have a fitted effect of over 45% in size; luciferase light after 4 h
Numbers without * were called inactive; ? = inconclusive; nt = not tested or not shown; & = joins results of further samples; [ ] = dose if it differs, or a comment. Unless noted, the call rests on the fitted dose curve; in most records, active means well fitted curve in the direction sought with a large enough effect; inconclusive means small, poorly fitted or top-dose-only effect, or another doubt; inactive means no such curve, though single readings can be large; an effect the other way counts as inactive or inconclusive. Potency means the concentration at half of the fitted maximal effect. The order is random; 4.7% or so of the library scored in one or more.

SMILES	Cruzain inh noDet	Lassa entry inh	MARV entry inh	SARS PLP yeast	Cruzain inh Det	NS1 inh	RE007 growth inh	StopGo reporter
CCCCCCNCc1cccc(Br)c1	1%	12%	?	1%	1.3%	-25%	-10%	7%
CCOC(=O)c1ccccc1NC(=O)Cn1cnc2c(cnn2-c2ccccc2)c1=O	20%	1%	12%	-1%	3.2%	-5%	1%	-23%
CCOc1cc(CNc2ccc(O)cc2)ccc1OCc1ccc(Cl)cc1Cl	-5%	?	-11%	-22%	-4.2%	-11%	0%	?
O=C(c1ccc(Sc2cccc(Cl)c2)c([N+](=O)[O-])c1)N1CCN(c2ccccn2)CC1	nt	-8%	?	0%	nt	nt	1%	-30%
CCOc1ccccc1C(=O)N(Cc1cc(OC)c(OC)c(OC)c1)c1ccccn1	1%	?	-2%[46.1 µM]	nt	-2.4%	nt	nt	-16%
Nc1c(Sc2ccccc2)c(=O)[nH]c(=O)n1Cc1ccccc1	nt	?	15%	nt	nt	8%	0%	nt
CN1CCN(c2ccc([N+](=O)[O-])cc2C(=O)c2ccc(Br)cc2)CC1	-9%	?	?	-4%	0.4%	-4%	-2%	-22%
CC(SC(=S)N(C)Cc1cccs1)C(=O)O (stereo not given)	-9%	0%	-1%	3%	2.4%	-6%	1%	-2%
O=C(CN1C(=O)C2(SCC(=O)N2c2ccc(F)c(F)c2)c2ccccc21)Nc1ccccc1F (stereo not given)	-27%	3%[46.1 µM]	nt	nt	-7.6%	nt	nt	-16%
O=C(NC1CC2CCCC(C1)N2C(=O)Nc1ccc(Cl)c(C(F)(F)F)c1)C1CC1 (stereo not given)	-2%	5%	-5%	-5%	-1.4%	11%	7%	?
CCOC(=O)CSc1nnc(CNc2ccc(F)cc2)o1	-3%	2%	17%	-6%	5.8%	-3%	10%	8%
Nc1nonc1C(=O)NCCNCc1cc(Br)ccc1OCc1ccccc1F	8%	-19%	?	-1%	-2.1%	-10%	-27%	?
O=[N+]([O-])c1ccc2c(c1)C(=NO)c1cc(Cl)c(Cl)cc1-2	nt	-5%[46.1 µM]	?	nt	nt	nt	13%	0%
O=C1N/C(=N/S(=O)(=O)c2ccccc2)S/C1=C/c1cccnc1	-16%	20%[46.1 µM]	?	10%	-2.9%	7%	-8%	-6%
Cc1ccc(-n2c(SCC(=O)Nc3cc(C)on3)nc3c(c2=O)SC(C)C3)cc1 (stereo not given)	-17%	nt	nt	3%	-0.6%	-2%	-12%	?
COc1ccc(-c2nnc(NC(=O)c3ccc(S(=O)(=O)N4CCc5ccccc5C4)cc3)o2)cc1	-10%	?	?	-5%	-0.6%	-15%	-4%	?
COc1ccc(CCNC(=O)C2CC(c3cccc([N+](=O)[O-])c3)=NO2)cc1 (stereo not given)	-2%	nt	nt	6%	-1.8%	-8%	-6%	55%[activator]
CCCC(CCC(=O)OC)(C(=O)OCC)c1csc(N)n1 (stereo not given)	-5%	13%	0%	-8%	1.9%	-10%	-14%	-20%
COc1cc(Cn2ccnc2)c(OC)cc1Cn1ccnc1	0%	?	-15%&-15%	-2%	6.1%	2%	4%	12%
Cc1c(Cl)c([N+](=O)[O-])nn1CC(=O)NC(C)C1CC2CCC1C2 (stereo not given)	0%	-12%	-28%	-1%	9.9%	-2%	-20%	?
Nc1nc(SCC(=O)Nc2ccc(Cl)c(S(=O)(=O)N3CCOCC3)c2)n[nH]1	nt	nt	nt	1%	nt	-1%	2%	-16%
COC(=O)c1cnc(Oc2c(Cl)cc(N)cc2Cl)cc1C(F)(F)F	nt	?	?	-12%	nt	-62%	6%	-20%
COc1ccc(OC)c(-c2csc(NC(=O)C3=NNC(=O)CC3)n2)c1	nt	0%	-2%[46.1 µM]	1%	nt	nt	14%	-24%
Cc1cc2nc[nH]c2cc1[N+](=O)[O-]	nt	1%	29%[46.1 µM]	1%	nt	nt	6%	15%
CCC(=O)c1ccc(OCC(=O)Nc2cccc(S(=O)(=O)N3CCCCCC3)c2)cc1	nt	-11%	?	3%	nt	nt	4%	?

Remaining list, next part:
SMILES	Cruzain inh noDet	Lassa entry inh	MARV entry inh	SARS PLP yeast	Cruzain inh Det	NS1 inh	RE007 growth inh	StopGo reporter
Cc1ccc2c(c1)C(=O)CC(c1ccccc1)S2 (stereo not given)	nt	?	?	nt	nt	nt	-24%	-27%
O=C(Cc1cccs1)N1CCN(S(=O)(=O)c2cccc([N+](=O)[O-])c2)CC1	nt	nt	nt	19%	nt	0%	-6%	-9%
COc1ccc(OC)c(C2c3[nH]c4ccccc4c3C[C@H]3C(=O)N(CCCOC(C)C)CC(=O)N23)c1 (stereo not given in full)	nt	nt	nt	2%	nt	10%	10%	13%
Cc1ccc(CN2CCNC(=O)C2CC(=O)N(C)C2CCCCC2)o1 (stereo not given)	nt	-26%	?	0%	nt	2%	2%	-8%
CCCc1cnc2c(c1SCC(=O)Nc1ccccc1OCC)c(=O)n(C)c(=O)n2C	-12%	1%[46.1 µM]	nt	nt	0.4%	nt	nt	-16%
CCOc1ccc(NC(=O)c2oc3ccccc3c2NC(=O)Cc2ccc(F)cc2)cc1	15%	30%[46.1 µM]	-10%[46.1 µM]	nt	1.1%	nt	nt	-3%
COc1ccc(NC(=O)CC2CC3CCC2C3)cc1S(=O)(=O)N1CCOCC1 (stereo not given)	nt	?	1%	5%	nt	nt	-4%	-21%
Cc1ccc(NC(=O)N(CCCN2CCOCC2)Cc2cc3cc4c(cc3[nH]c2=O)OCO4)cc1	-5%	21%	-17%	5%	-8.1%	-7%	-21%	-7%
COc1ccccc1CNC(=O)c1ccc(-c2nc(CS(=O)c3ccc(C)cc3)c(C)o2)cc1 (stereo not given)	5%	-1%[46.1 µM]	nt	nt	-0.4%	nt	nt	?
CCC(NS(=O)(=O)c1ccc(OC)cc1)C(=O)NCCC1=CCCCC1 (stereo not given)	8%	-5%	-12%	6%	8.3%	-2%	-4%	nt
O=C(NC1CC1)C1=C[C@@H](c2coc3ccccc3c2=O)C[C@@H](OCc2ccc(CO)cc2)O1	nt	nt	nt	-1%	nt	2%	19%	-16%
Cc1[nH]n(-c2ccc(Cl)cc2)c(=O)c1C=Nc1ccc(S(=O)(=O)N2CCOCC2)cc1	?	7%	2%	-17%	-11%	2%	?	nt
[O-]C1=N/[N+](=C/c2ccc(Cl)cc2)CC1	18%	19%	-4%	6%	4.4%	-7%	12%	7%
COc1ccccc1CNC(=O)CCc1c(C)c2cc3c(C)c(C)oc3cc2oc1=O	3%	6%[46.1 µM]	?	nt	2.4%	nt	nt	31%[activator]
CCCNC(=O)Nc1nc(CC(=O)OCC)cs1	nt	nt	nt	0%	nt	1%	1%	13%
COc1cc(C(=O)Nc2cc(C(F)(F)F)ccc2-n2cncn2)cc(OC)c1OC	nt	-10%	?	-2%	nt	-5%	-12%	-7%
C/C(=N\NC(=S)Nc1cccc(C)c1)c1ccco1	nt	?	-2%[46.1 µM]	0%	nt	-1%	-23%	23%
O=C(c1ccc(S(=O)(=O)N2CCOCC2)cc1)N1CCN(c2ccc(F)cc2)CC1	?	-2%	-8%	0%	-0.4%	-7%	6%	-20%
CCOC(=O)C1=C(C)NC2=C(C(=O)CCC2)C1c1cccnc1 (stereo not given)	-11%	21%[14.3 µM]	1%	4%	-2.1%	6%	-9%	-17%
Cc1ccc(NC(=O)CCn2ccc([N+](=O)[O-])n2)nc1	10%	2%	11%	0%	-4.3%	1%	-4%	8%
COc1ccc(C2C=C(c3ccc(Cl)cc3)Nc3nc(NC(=O)CCC(=O)O)nn32)cc1 (stereo not given)	?	17%[46.1 µM]	5%[46.1 µM]	nt	-4.3%	nt	nt	-2%
Cc1ccc(S(=O)(=O)Nc2cccc(-c3ccc(N4CCCC4)nn3)c2)c(C)c1	9%	-20%[46.1 µM]	nt	nt	-7.5%	nt	nt	16%
COc1ccccc1NC(=O)CSc1nnc(Cc2ccccc2)o1	1%	7%	21%	nt	0.5%	-17%	-12%	16%
O=C(NCCCN1CCCCC1)C1CCCN(c2ncnc3c2nc2n3CCCCC2)C1 (stereo not given)	nt	22%[46.1 µM]	?	0%	nt	-11%	7%	23%
CCc1cccc(C)c1NC(=O)CCCC(=O)O	-2%	-13%	7%[46.1 µM]	0%	-7.8%	6%	-11%	-17%

Going on with the list.
SMILES	Cruzain inh noDet	Lassa entry inh	MARV entry inh	SARS PLP yeast	Cruzain inh Det	NS1 inh	RE007 growth inh	StopGo reporter
Cc1ccc(SC(C)C(=O)NCc2ccc(F)cc2)cc1 (stereo not given)	nt	?	?	-2%	nt	-5%	-12%	-8%
Cc1ccc(SCC(=O)Nc2ccc(C(=O)Nc3ccc(O)cc3)cc2)cc1	nt	8%	1%[46.1 µM]	1%	nt	1%	34%	3%
O=C(CSc1nnnn1C1CCCC1)Nc1ccc(F)cc1	-9%	8%	-4%	1%	2.8%	-17%	6%	-4%
CCC(=O)Nc1ccc(C(=O)Nc2ccc(Br)cc2F)cc1	nt	nt	nt	0%	nt	1%	9%	18%
CC1c2cc3c(cc2CCN1C(=O)c1ccc(Br)cc1)OCCCO3 (stereo not given)	nt	nt	nt	-4%	nt	-25%	17%	?
Cc1nc2ccc(S(=O)(=O)NC(C(=O)N3CCn4c3nc3ccccc34)C(C)C)cc2s1 (stereo not given)	-18%	nt	0%	-7%	-1.3%	-2%	-4%	-2%
CC1Cc2cc(S(=O)(=O)N3CCC(C(=O)N(C)Cc4ccccc4)CC3)ccc2N1C(=O)C1CC1 (stereo not given)	nt	nt	nt	-6%	nt	0%	-4%	?
Cc1[nH]n2c(=O)c3c(nc2c1-c1ccccc1)CCC3	1%	9%	-2%[46.1 µM]	2%	0.9%	-1%	-11%	?
COc1cc(OC)c(C#N)c(S(=O)(=O)Cc2ccccc2)c1	-7%	-2%	16%	-10%	-1.8%	3%	0%	-5%
COCCCNC(=O)C(=O)Nc1cc2c3c(c1)CCC(=O)N3CCC2	nt	nt	nt	0%	nt	0%	-1%	19%

Screening results (PubChem BioAssay)
